# Calb FLC: affects C. albicans growth with fluconazole; growth inhibition, % (test concentration not listed); 300,000 tested, 0.57% active; C. albicans CaCi-2 (fluconazole-resistant clinical isolate) + fluconazole, Alamar Blue growth, 48 h;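 active = most replicates above 75%; inconclusive = exactly half above 75%; inactive = most below 75%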;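 note: all wells also contain fluconazole at 8 µg/ml as a sub-toxic cotreatment; 0% = median of DMSO wells and 100% = median of geldanamycin control wells; wells of about 8 µL received 7.5 nL stock; the first replicate is given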
# A1 inh: inhibitors of the anti-apoptotic protein A1, read as caspase activation; MEF A1-2A-BIM cells, Caspase-Glo 3/7 luminescence, 3 h; percent of clofoctol response, vehicle zero; 330,000 tested, 0.066% active; caspase activation, % (test concentration not listed); AID 2462;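 active = over half of replicate activation scores above 10%, or exactly half above 10 with the replicate mean above 10; inconclusive = replicate mean below 10 yet half the replicates above 10; inactive = over half of replicates below 10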;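 note: wells of about 30 µL received 50 nL stock; many hits fall short of the cut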
# Beta cell apopt: blocks beta cell apoptosis; INS-1E cytokine-induced death, ATP luminescence, 48 h; percent of positive-control rescue, neutral wells zero; protection from apoptosis, % (test concentration not listed); 300,000 tested, 0.8% active; AID 435005;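 active = all replicates at 75% or more, or half of them and the mean; inconclusive = half reach 75% but not the mean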;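 note: 0% = cytokine-treated negative control wells and 100% = positive control rescue; higher means more ATP so stronger rescue from cytokine killing; wells of about 40 µL received 100 nL stock; the first replicate is given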
# RanGTP-Impb inh: inhibitors of RanGTP-importin-beta interaction, primary screen, biochemical, FRET, CFP-Ran, YFP-importin-beta, homogeneous; inhibition, % (no concentration beside the values); cell-free CFP-Ran/YFP-importin-beta FRET ratio; 300,000 tested, 1.1% active; AID 2216;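 active = most replicates above 15%; inconclusive = exactly half above 15%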;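 note: 0% = DMSO wells and 100% = Ran loaded with GDP instead of GTP; wells of about 40 µL received 100 nL stock; the first replicate is given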
# UCH37 inh: human UCH37 deubiquitinating enzyme inhibition | Q9Y5K5 | purified proteasome/UCH37, Ub-AMC cleavage fluorescence | inhibition, % (concentration not given with the values) | 330,000 tested, 0.33% active;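 active = mean of two replicates above 20%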;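 note: 0% = compound-free wells with enzyme and 100% = wells lacking proteasome; stock transfer was 100 nL into about 20 µL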
# Target sequence (Q9Y5K5 whole entry, looked up): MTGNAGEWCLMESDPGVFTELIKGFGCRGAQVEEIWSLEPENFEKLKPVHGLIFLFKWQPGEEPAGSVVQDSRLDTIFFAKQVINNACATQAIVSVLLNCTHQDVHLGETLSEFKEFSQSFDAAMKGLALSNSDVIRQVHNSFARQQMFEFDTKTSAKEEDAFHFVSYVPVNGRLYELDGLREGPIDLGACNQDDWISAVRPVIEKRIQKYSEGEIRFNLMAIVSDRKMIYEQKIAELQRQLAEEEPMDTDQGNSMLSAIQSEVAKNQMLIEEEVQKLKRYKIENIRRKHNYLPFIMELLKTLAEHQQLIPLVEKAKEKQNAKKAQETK
#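 assay system = human UCH37 enzyme supplied as purified proteasome complex | amount = proteasome at 0.15 nM in the dispensed enzyme solution | schedule = 30 min compound-proteasome preincubation then 25 min substrate reaction, room temperature | measured by = fluorescence, ex 355 nm, em 460 nm | benchmarks = no-proteasome wells (full inhibition) and compound-free wells (no inhibition)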
# LANA-H2A inh: blocks KSHV LANA binding to histone H2A/H2B | cell-free LANA-H2A/H2B peptide, fluorescence polarization | AID 2629 | inhibition, % (concentration not given with the values) | 320,000 tested, 0.6% active; in the data active = inhibition mostly above about 10%, no sharp cut-off; inactive = mostly below about 6.7%;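 note: stock transfer was 7.5 nL into about 10 µL; 0% = median of vehicle wells and 100% = median of positive control wells; one replicate is shown; the record names a cut of 25% in any replicate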
# T cruzi inh: blocks replication of Trypanosoma cruzi; inhibition, % (no concentration beside the values); AID 1885; T. cruzi beta-gal in NIH3T3, luminescence, 90 h; 300,000 tested, 1.4% active;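 active = mean inhibition across valid replicates above about 55%, limit read from the data; inconclusive = mean below that limit but half or more replicates reach it; inactive = mean below it, under half of replicates reach it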;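 note: signal also drops with host cell toxicity which is not excluded here; 0% = plate median of DMSO wells and 100% = zero luminescence signal; higher percent means less beta-gal luminescence so fewer parasites; stock transfer was 50 nL into about 50 µL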
# B2AR ag: agonists of human beta-2 adrenergic receptor inducing internalization | Am2.2-beta2AR cells, FAP receptor internalization, flow cytometry; reference of the scale not given here | response, % (no concentration beside the values) | 340,000 tested, 0.43% active | P07550 | AID 504454;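 active = response above a set limit, near 3 SD of response in nonfluorescent compounds, cut at about 42% in these data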;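 note: stock transfer was 100 nL into about 11 µL; a reference agonist was the positive control; negative values mostly stem from fluorescent compounds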
# Target sequence (P07550 whole entry, looked up): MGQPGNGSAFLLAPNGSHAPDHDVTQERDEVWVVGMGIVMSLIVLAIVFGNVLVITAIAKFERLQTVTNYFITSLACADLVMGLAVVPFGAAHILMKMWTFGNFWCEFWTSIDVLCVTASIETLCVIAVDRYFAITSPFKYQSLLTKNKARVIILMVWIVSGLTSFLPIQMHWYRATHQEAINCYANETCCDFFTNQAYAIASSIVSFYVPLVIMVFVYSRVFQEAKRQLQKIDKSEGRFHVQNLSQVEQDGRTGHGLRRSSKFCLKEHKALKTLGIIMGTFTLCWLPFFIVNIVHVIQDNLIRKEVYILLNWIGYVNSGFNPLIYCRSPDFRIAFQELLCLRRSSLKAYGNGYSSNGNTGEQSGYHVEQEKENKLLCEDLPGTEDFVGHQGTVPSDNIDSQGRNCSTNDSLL
# Starred values were filed as active, the others as inactive; i = inactive; ? = inconclusive; . = no result given.
SMILES,Calb FLC,A1 inh,Beta cell apopt,RanGTP-Impb inh,UCH37 inh,LANA-H2A inh,T cruzi inh,B2AR ag
CN(Cc1cccc(F)c1)C(=O)c1ccccc1Sc1ccccc1C#N,5,-0.8,.,3.7,3.0,0.9,20,9
CC1(C)CC(=O)C2=C(C1)OC(N)=C(C#N)C2c1ccccc1 (configuration not stated),?,0.1,-3,?,4.4,4.0,-14,4
c1ccc(OCCCn2nnc(-c3ccncc3)n2)cc1,1,-0.5,.,-1.6,0.1,-2.8,39,-4
CCn1c(N2CCN(S(=O)(=O)c3ccc(Cl)cc3)CC2)nc2ccccc21,0,0.6,15,-0.1,5.1,2.3,88*,-15
Cc1c(C)n2c(SCC(=O)N3CCN(c4ccccc4)CC3)nnc2[nH]c1=O,5,-0.2,.,-0.4,-1.5,-1.2,-11,1
O=C(Nc1ccccc1)[C@@H]1CCCN1S(=O)(=O)c1ccc(Cl)cc1,.,0.8,-1,.,0.3,10,.,-4
CCOc1cc(/C=N/O)ccc1OCc1ccc(F)cc1,9,0.5,-1,?,.,1.2,-6,7
N#Cc1nc(-c2cccs2)oc1NCCCN1CCOCC1,32,0.8,-1,-3.7,i,-0.9,-2,4
O=C(CSc1nc2cc(C(F)(F)F)ccc2n1Cc1ccccc1)NC1CCS(=O)(=O)C1 (configuration not stated),8,0.7,-1,-0.6,6.3,-1.9,18,-1
Cc1ccc(NC(=O)CN2C(=O)NC3(CCCC3)C2=O)c(Cl)c1,3,1.4,.,3.7,1.5,-3.1,-4,-6
O=C(Nc1ccc2oc(-c3ccccc3F)nc2c1)c1ccco1,-6,-4.6,0,4.8,-27,3.4,3,-8
CCOC(=O)C1(CC2CC2)CCN(Cc2cc(Cl)c(O)c(OC)c2)CC1,13,0.7,-9,-1.5,0.4,0.4,-5,-2
CC(=O)c1cccc(NC(=O)CCn2c(=S)oc3ccccc32)c1,0,0.3,4,-0.9,1.7,3.4,-6,-3
COc1ccc(CC(=O)NC(=S)Nc2ccc(S(N)(=O)=O)cc2)cc1,-2,0.2,-2,3.8,0.8,2.9,-11,-3
COC(=O)c1ccc(CSc2nnc(CNC(=O)c3ccc(OC)cc3)o2)o1,29,-0.1,-2,-1.5,0.5,-1.1,3,2
Clc1ccc(-c2nc3ncccn3c2Cl)cc1,32,-3.0,2,5.5,i,4.4,8,-3
O=C1CSC(c2ccncc2)N1Cc1ccc(F)cc1 (configuration not stated),-3,1.8,-9,1.4,6.8,-0.2,2,2
O=C(COC(=O)C1c2ccccc2Oc2ccccc21)Nc1ccc2c(c1)OCO2,-10,-0.3,-2,0.0,5.9,-2.2,-6,-8
CCOC(=O)c1c(N)sc(C(=O)Nc2ccccc2)c1C,-7,-9.1,12,3.0,0.2,0.4,25,-5
CCCNC(=O)c1nnsc1Sc1ccc(Cl)cc1,-7,0.4,1,1.0,0.6,-5.5,8,-7
Cc1ccc(N=C(c2cccs2)N2CCOCC2)cc1,2,0.2,3,-3.7,3.8,1.1,-1,-1
c1ccc(C[C@H]2CN=C(Nc3ccccc3)N2CC2CCCCCC2)cc1,.,0.6,-2,.,3.1,-5.6,.,28
O=C(NNC(=O)c1ccc(Cl)cc1Cl)c1csc(-c2cccnc2)n1,17,0.8,1,3.5,1.6,0.9,-8,-2
CC1CCCCC12NC(=O)N(CC(=O)NNC(=O)c1ccc(Br)cc1)C2=O (configuration not stated),.,-0.7,1,.,2.1,-0.3,.,-2
N=C1/C(=C/c2cccn2-c2cccc([N+](=O)[O-])c2)C(=O)N=C2SC=CN12,2,0.2,10,-2.9,6.8,.,-5,.
CCc1ccc(Nc2nc(C)cc(C)n2)cc1,-9,-2.1,-8,7.1,2.6,3.5,1,2
COc1cc(-c2nc3cccc(C)n3c2NCC2CCCO2)ccc1O (configuration not stated),7,-0.6,0,-1.3,-327,5.6,-16,7
Cc1ccc(-c2nc3sc4c(c3c(=O)n2N)CC(C)(C)OC4)cc1,-16,0.4,2,-4.0,-14,-3.9,5,0
O=Cc1ccc2ccc3cccnc3c2n1,2,-0.6,-11,?,-0.1,1.3,-2,2
CCc1ccc(Nc2n[n+](-c3ccccc3)c(-c3cccc(Cl)c3Cl)s2)cc1,.,1.3,15,.,0.6,1.3,.,15
CCOC(=O)c1sc(=S)n2c1[nH]c(=O)c1ccc(C(=O)OC)cc12,34,-0.3,-1,-0.1,5.0,5.3,5,10
CCOc1ccc(C2NC(=O)CCC2[N+](=O)[O-])cc1 (configuration not stated),-1,-0.6,.,1.1,0.3,-5.5,-7,-4
CN1CCN(c2ccc([N+](=O)[O-])cc2NC(=O)c2ccccc2)CC1,1,1.6,-4,6.3,8.6,-2.7,1,-4
COC(=O)[C@H](CC(C)C)N(Cc1ccccc1)S(=O)(=O)N(Cc1ccccc1)[C@@H](CC(C)C)C(=O)OC,.,1.3,121*,.,-1.2,3.5,.,4
CCN1CCN(/C=N/c2nc(C)cs2)CC1,-7,-0.1,4,-0.8,.,-1.5,-5,1
CC(=O)c1cccc(NC(=O)N[C@@H](CC(C)C)C(=O)O)c1,-3,-0.2,-18,-4.5,0.7,-6.6,-5,-6
N#Cc1c(-c2ccc(Cl)cc2)c(C#N)c(=O)n(N)c1N,-10,-0.2,-3,?,4.6,-2.6,-7,-1
Cn1ncc2c(NCc3cccc(C(F)(F)F)c3)c(C(=O)O)cnc21,-3,0.5,-4,2.1,1.6,2.2,-19,.
CO/N=C1\CCCc2c(C(=O)NN)sc(SC)c21,0,-0.4,0,-3.1,.,3.0,-13,11
CS(=O)(=O)N(CC(=O)NCc1ccco1)c1ccc(Cl)cc1Cl,-2,0.0,-4,3.4,4.2,0.5,-14,4
Cc1nc(SCC(=O)Nc2c(C)n(C)n(-c3ccccc3)c2=O)[nH]c(=O)c1Cc1ccccc1,-18,1.1,2,-4.4,1.5,12,4,-17
COc1cnn(-c2ccccc2)c(=O)c1SCc1ccc(Cl)c(Cl)c1,-30,0.5,6,-1.7,2.6,2.7,-31,4
CC1CCN(Cc2ccc(-c3nnn(CC(=O)NC4CCCCC4)n3)cc2)CC1,-3,0.0,.,-3.5,2.3,-1.7,6,-14
CC(=O)c1ccc(OCc2cc(C(=O)N3CC[C@@H]4CCCC[C@H]4C3)no2)cc1,6,1.1,-2,3.2,2.9,0.3,11,-13
CC(C)(C)c1ccc(C(=O)NCc2nnc(SCC(=O)NCc3ccco3)o2)cc1,-7,1.0,-5,4.9,5.0,3.0,-10,-6
CC(C)(C)c1cc(S(=O)(=O)CCc2ccccn2)cc(C(C)(C)C)c1F,-1,0.9,3,9.5,3.5,-0.2,34,-20
CCn1nc(C)c(CCC(=O)O)c1C,51,2.6,-3,2.4,3.6,-1.5,6,5
COc1ccc(/C=N\Nc2ncc(F)c(N3CCOCC3)n2)cc1OC,-20,2.3,-7,3.0,.,1.8,-4,8
Cc1ccccc1OCC(O)Cn1c(N2CCCCC2)nc2c1c(=O)[nH]c(=O)n2C (configuration not stated),-7,-0.1,1,1.7,-0.2,-3.1,1,3
Cc1ccc(S(=O)(=O)N2CCCCC2C(=O)O)cc1 (configuration not stated),2,-0.2,-1,4.6,4.2,2.7,6,2

# Remaining list, next part.
SMILES,Calb FLC,A1 inh,Beta cell apopt,RanGTP-Impb inh,UCH37 inh,LANA-H2A inh,T cruzi inh,B2AR ag
O=C(CCC1CCCCC1)NCc1ccncc1,-13,1.3,-5,-0.9,1.9,-1.9,-29,-8
O=C(NC(=S)Nc1ccc(S(=O)(=O)Nc2nccs2)cc1)c1ccc(Br)o1,4,0.7,-1,-1.7,-2.2,3.0,2,4
CN(C)S(=O)(=O)c1ccc(Cl)c(NC(=O)CN2CCNC(=O)C2)c1,12,-0.9,-3,-3.2,-0.2,2.3,-7,-9
Cc1cc(C)cc(N(C(=O)CNC(=O)c2ccco2)C(C(=O)NC2CCCCC2)c2ccncc2)c1 (configuration not stated),19,0.0,0,-0.2,4.1,-5.0,13,-6
COc1ccccc1C(=O)NC(=S)Nc1ccc(Cc2ccncc2)cc1,-1,-2.9,-1,?,4.7,-1.0,-4,-5
O=C(COC(=O)Cc1cn2ccsc2n1)NC12CC3CC(CC(C3)C1)C2,-5,0.3,-7,-2.1,5.2,-1.3,0,9
Nc1ccccc1C(=O)N=Nc1[nH]c(N)c2ccccc12,-26,-1.2,-1,3.2,8.7,1.1,1,5
C=CCn1cnnc1SCC(=O)N(C)CC1COc2ccccc2O1 (configuration not stated),.,-0.4,-10,.,-0.5,3.8,.,0
O=C(Nc1ccccc1[N+](=O)[O-])c1cccc(N2C(=O)CCC2=O)c1,6,-0.7,-1,4.5,2.2,-3.0,-6,-1
O=C(O)c1c(C(=O)O)c(-c2ccc(Cl)c(Cl)c2)n2c1CSC2,-7,-0.9,-4,-4.0,2.5,-3.6,-4,-24
CC(=O)Nc1cccc(OCc2ccc(S(=O)(=O)Cc3ccccc3)cc2)c1,10,-0.2,2,3.8,7.5,-0.5,-41,3
Fc1ccc(Cc2nnc(-c3cccs3)o2)cc1,-6,-0.2,-6,5.5,1.2,0.0,-20,2
O=C(O)CCCNC(=O)/C(=C\c1ccccc1F)NC(=O)c1ccccc1,1,1.3,0,-0.1,4.9,-5.2,1,5
O=C1NN=C(c2ccccc2)CC1c1ccc(Cl)cc1Cl (configuration not stated),52,-0.7,.,1.9,2.3,3.2,0,0
COC(=O)C1CCN(C(=O)COC(=O)c2cc([N+](=O)[O-])ccc2N2CCOCC2)CC1,.,-0.4,-1,.,5.6,-5.2,.,5
COc1ccccc1NS(=O)(=O)c1ccc(C(=O)NCC(c2ccco2)N(C)C)cc1 (configuration not stated),.,0.8,-3,.,-2.5,2.9,.,24
CCOc1ccc(-n2c(SCC(=O)OC)nc3sc4c(c3c2=O)CCN(C)C4)cc1,-2,-0.2,-8,0.1,-2.4,-2.3,6,-7
O=C(O)c1cc([N+](=O)[O-])ccc1NCc1ccccc1,11,-0.3,-3,1.3,9.3,-3.6,-1,9
Cc1ccnc(Sc2ccc([N+](=O)[O-])cc2[N+](=O)[O-])n1,98*,0.5,-2,0.9,3.5,5.2,29,-7
COc1ccc(OCC(=O)Nc2ccc3c(c2)nc(CCN2CCC(C)CC2)n3C)cc1,1,1.3,.,0.0,5.9,-0.9,-4,4
Cc1c(C(=O)c2ccc(F)cc2)c2ccccn2c1CCc1ccccn1,5,-0.2,.,2.4,2.6,-2.5,2,-9
O=S(=O)(O)CCN1CCOCC1,-5,0.0,-3,0.1,-0.7,7.0,.,25
CC(C)C[C@H](NC(=O)c1nc[nH]c1C(=O)N1CCN(c2ccccc2)CC1)C(=O)OCc1ccccc1,-5,-0.5,-5,-6.0,3.5,3.7,-20,14
O=C1CC(N2CCCN(C3CC(=O)N(c4ccc(F)cc4)C3=O)CC2)C(=O)N1c1ccc(F)cc1 (configuration not stated),-7,-0.8,-1,-3.0,3.1,1.9,-8,3
O=C(COC(=O)c1cccs1)c1ccc2c(c1)OCCO2,18,-6.9,1,-1.0,1.6,0.0,-6,1

# Source: PubChem
